Screens deposited in PubChem BioAssay by Broad Institute.
Hedgehog inh: Sonic Hedgehog pathway inhibition; Shh-LIGHT2 Gli-luciferase reporter, 30 h; 22,000 tested, 2.1% active; inhibition, % (concentration not given with the values); AID 2313;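 active means replicate mean of 65% or more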;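 further: pathway switched on by Shh-conditioned medium diluted 1 in 25 in low serum; 100 nL library stock added to about 40 µL; 0% = median of neutral wells and 100% = positive control level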
MITF inh: MITF inhibition | inhibition, % (no concentration beside the values) | TRPM1 promoter luciferase, luminescence, 24 h | 37,000 tested, 0.28% active;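 active means most replicates at 85% or more, or half of them and the mean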;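 further: human melanocyte line stably carrying TRPM1 promoter luciferase reporter; 0% = vehicle wells and 100% = a positive control; the first replicate is given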
PD-1 reversal: reversal of PD-1 mediated T-cell inhibition | 29,000 tested, under 10 active | AID 2316 | primary human CD4 T cells, PD-L1 beads, CellTiter-Glo 96 h | activation, % (test concentration not listed);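 active means replicate mean of 50% or more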;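 further: 0% = median vehicle wells and 100% = positive control; 100 nL library stock added to about 50 µL; numbers are from one replicate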
YB-1 expr inh: YB-1 expression inhibition. U2OS, qRT-PCR YB-1 vs CDIP delta delta Cp, 16 h; active compounds read high; zero = DMSO, each unit about twofold. delta delta Cp (YB-1 minus CDIP) (no concentration beside the values). 30,000 tested, 0.37% active. AID 434959;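 active means delta delta Cp rounded down to an integer at or above 3, about 3 SD of DMSO wells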;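 further: higher means less YB-1 transcript or more CDIP transcript relative to DMSO; stock transfer was 100 nL into about 100 µL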
The depositor's hits bear a star; / = not tested or not shown. Not all compounds are listed; rates above refer to the full screens.

smiles,PD-1 reversal,YB-1 expr inh,MITF inh,Hedgehog inh
C[C@@H]1CN([C@H](C)CO)C(=O)c2cc(NC(=O)Nc3ccccc3)ccc2O[C@H]1CN(C)CC1CCCCC1,-0.2,0.62,7,-1
CCc1ccc(N(CC(=O)NC)S(C)(=O)=O)cc1,0.8,/,-18,/
Cc1noc(C)c1S(=O)(=O)N(C)C[C@@H]1Oc2ccc(NS(=O)(=O)c3cccs3)cc2C(=O)N([C@H](C)CO)C[C@@H]1C,-0.7,-0.11,-10,-18
COc1ccc(CN(C)C[C@H]2Oc3ccc(NS(=O)(=O)c4ccccc4)cc3C(=O)N([C@@H](C)CO)C[C@@H]2C)cc1,-4.3,-0.12,-8,/
COc1cc2nc3occc3c(OC)c2cc1OCC(O)C(C)(C)O (stereo unspecified),0.2,0.79,6,5
COc1cc(C(=O)OCC2(O)COC(OCC3OC(Oc4c(OC)cc(CO)cc4OC)C(O)C(O)C3O)C2O)cc(OC)c1O (stereo unspecified),/,7.1*,/,-7
CC(C)NC(=O)N(C)C[C@@H]1Oc2ccc(NC(=O)NC3CCCCC3)cc2C(=O)N([C@@H](C)CO)C[C@@H]1C,-0.4,-1.5,-8,/
CC(C)NC(=O)Nc1cccc2c1O[C@@H](CN(C)Cc1ccc(Oc3ccccc3)cc1)[C@H](C)CN([C@H](C)CO)C2=O,-3.7,-0.19,8,27
Cc1ccc(N(C(C)C(=O)Nc2cccc(C(F)(F)F)c2)S(C)(=O)=O)cc1 (stereo unspecified),-1.0,/,-1,/
C=C1CC[C@H]2[C@](C)(CCC[C@]2(C)C(=O)OC)[C@H]1CC/C(C)=C/C(=O)O,-0.4,-0.47,24,-23
COc1ccc(-n2c(SCC(N)=O)nnc2-c2cccnc2)cc1,-0.2,/,-6,/
C[C@@H]1CN([C@@H](C)CO)C(=O)c2cccc(NS(=O)(=O)c3ccc(Cl)cc3)c2O[C@@H]1CN(C)Cc1ccc(Cl)c(Cl)c1,-1.2,-0.4,-4,0
CC(C)NC(=O)Nc1ccc2c(c1)C(=O)N([C@H](C)CO)C[C@H](C)[C@@H](CN(C)C(=O)Nc1ccc3c(c1)OCO3)OCCCC[C@@H](C)O2,/,0.084,-21,-15
Cc1c(Cl)c(O)c(Cl)c(C)c1N(S(=O)(=O)c1ccccc1)S(=O)(=O)c1ccccc1,-1.6,-0.27,3,36
C[C@@H]1CN([C@@H](C)CO)C(=O)c2cc(NC(=O)CCN3CCOCC3)ccc2O[C@@H]1CN(C)Cc1ccc(Oc2ccccc2)cc1,-2.2,0.43,-43,27
CCc1cccc(C)c1NC(=O)CSc1n[nH]c(-c2ccccc2Cl)n1,0.2,/,10,/
COc1ccc(CN(C)C[C@H]2Oc3ccc(NC(=O)Nc4ccc(OC)cc4)cc3C(=O)N([C@@H](C)CO)C[C@H]2C)cc1,0.5,0.11,-3,-7
C[C@H]1CN([C@@H](C)CO)C(=O)c2cc(NS(=O)(=O)c3cccs3)ccc2O[C@@H]1CN(C)Cc1ccc(C(=O)O)cc1,0.8,0.091,-7,/
C[C@@H]1CN([C@@H](C)CO)C(=O)c2cc(NC(=O)Cc3cn(C)c4ccccc34)ccc2O[C@@H]1CN(C)Cc1ccc(C(F)(F)F)cc1,-1.1,-0.026,39,24
Cc1ccc(S(=O)(=O)Nc2ccc3c(c2)C(=O)N([C@@H](C)CO)C[C@H](C)[C@@H](CN(C)C(=O)Nc2ccc(F)cc2)O3)cc1,0.9,0.45,-5,-27
C[C@@H]1O[C@@H](O[C@@H]2[C@@H](O)[C@H](O[C@@H]3[C@@H](O)[C@H](C)O[C@@H](O[C@H]4[C@H](O[C@H]5CC[C@@]6(C)C(CC[C@]7(C)C6CC=C6[C@@H]8CC(C)(C)CC[C@]8(C(=O)O)CC[C@]67C)[C@]5(C)CO)OC[C@H](O)[C@@H]4O)[C@@H]3O)O[C@H](CO)[C@H]2O[C@@H]2O[C@H](CO)[C@@H](O[C@@H]3OC[C@@H](O)[C@H](O)[C@H]3O)[C@H](O)[C@H]2O)[C@H](O)[C@H](O)[C@H]1O (stereo partly specified),-6.1,1.5,-4,78*
C[C@@H]1CCCCO[C@H](CN(C)C(=O)CCC(F)(F)F)[C@@H](C)CN([C@H](C)CO)C(=O)c2cc(NS(=O)(=O)c3ccc(Cl)cc3)ccc2O1,-1.8,-0.29,-5,-5
C[C@@H]1CCCCO[C@H](CN(C)Cc2ccc(C(F)(F)F)cc2)[C@@H](C)CN([C@H](C)CO)C(=O)c2cc(NS(=O)(=O)c3ccc(Cl)cc3)ccc2O1,/,-0.33,14,21
C[C@H](CO)N1C[C@H](C)[C@@H](CN(C)C)Oc2ccc(NC(=O)Nc3ccccc3)cc2C1=O,0.9,-0.24,-2,-5
COc1ccc(S(=O)(=O)Nc2ccc3c(c2)C(=O)N([C@H](C)CO)C[C@H](C)[C@@H](CN(C)C(=O)CCCN(C)C)OCCCC[C@@H](C)O3)cc1,/,0.18,4,-11
C[C@H](CO)N1C[C@H](C)[C@@H](CN(C)C(=O)Nc2ccc(C(F)(F)F)cc2)Oc2c(NS(=O)(=O)c3ccc(Cl)cc3)cccc2C1=O,0.9,0.2,1,-47
O=[N+]([O-])c1cccc2cn[nH]c12,/,0.28,6,-1
Cc1noc(C)c1S(=O)(=O)Nc1ccc2c(c1)CC(=O)N([C@@H](C)CO)C[C@@H](C)[C@@H](CN(C)C(=O)NC1CCCCC1)O2,1.8,-0.3,10,-19
C[C@H]1CN([C@@H](C)CO)C(=O)c2cc(NC(=O)Cc3ccccc3)ccc2O[C@@H]1CN(C)S(C)(=O)=O,1.0,0.37,-2,-27
C[C@H](CO)N1C[C@H](C)[C@H](CN(C)S(=O)(=O)c2ccc(Cl)cc2)Oc2ccc(NS(C)(=O)=O)cc2C1=O,2.7,0.28,-16,-8
Cc1ccc(S(=O)(=O)Nc2ccc3c(c2)C(=O)N([C@H](C)CO)C[C@H](C)[C@@H](CN(C)CC2CC2)O3)cc1,/,-0.53,-13,-17
C[C@@H]1CCCCO[C@@H](CN(C)C(=O)Nc2ccccc2)[C@@H](C)CN([C@H](C)CO)C(=O)c2cc(NC(=O)c3ccncc3)ccc2O1,-0.5,0.27,2,/
C[C@H](CO)N1C[C@H](C)[C@H](CN(C)Cc2ccc3c(c2)OCO3)Oc2ccc(NC(=O)Nc3ccc(F)cc3)cc2C1=O,-1.7,0.31,-12,31
C[C@H](CO)N1C[C@H](C)[C@@H](CN(C)Cc2ccc(C(F)(F)F)cc2)Oc2ccc(NC(=O)C3CC3)cc2C1=O,/,0.043,7,/
COc1ccc(S(=O)(=O)N(C)C[C@@H]2Oc3c(NS(=O)(=O)c4ccccc4)cccc3C(=O)N([C@H](C)CO)C[C@H]2C)cc1,1.0,-0.16,1,-3
CC(C)NC(=O)N(C)C[C@H]1Oc2ccc(N(C)C)cc2C(=O)N([C@H](C)CO)C[C@H]1C,2.0,0.39,-8,-19
NC(=O)c1c(NC(=O)C2CC(=O)N(c3ccc(Cl)cc3)C2)sc2c1CCCC2 (stereo unspecified),1.0,/,4,/
Cc1noc(C)c1S(=O)(=O)Nc1ccc2c(c1)CC(=O)N([C@H](C)CO)C[C@H](C)[C@H](CN(C)CC1CC1)O2,1.2,/,0,-22
C[C@H](CO)N1C[C@H](C)[C@H](CN(C)Cc2ccc3c(c2)OCO3)Oc2ccc(NC(=O)NC3CCCCC3)cc2C1=O,1.1,-0.29,4,/
C[C@@H]1CN([C@@H](C)CO)C(=O)c2cc(NC(=O)Nc3cccc4ccccc34)ccc2O[C@H]1CN(C)Cc1ccc(Cl)c(Cl)c1,-2.0,0.055,18,-11
Cc1ccc(S(=O)(=O)N(C)C[C@H]2Oc3ccc(NC(=O)Nc4cccc5ccccc45)cc3C(=O)N([C@H](C)CO)C[C@H]2C)cc1,1.4,-0.055,10,34
C[C@@H]1CN([C@@H](C)CO)C(=O)Cc2cc(NC(=O)Nc3ccccc3)ccc2O[C@@H]1CN(C)CC1CC1,/,0.46,-31,-22
CN(C)C=NC(=O)c1sc(S(C)(=O)=O)c2c1CCC=C2,-0.1,-0.015,-14,/
C[C@@H]1CN([C@H](C)CO)C(=O)Cc2cc(NC(=O)Cn3cnnn3)ccc2O[C@H]1CN(C)S(=O)(=O)c1ccccc1,/,-0.42,-16,/
C[C@@H]1CN([C@H](C)CO)C(=O)Cc2cc(NS(=O)(=O)c3cccs3)ccc2O[C@H]1CN(C)S(C)(=O)=O,/,0.3,-1,-3
CCN(C(=O)c1cnccc1C(F)(F)F)c1ccc(Cl)cc1Cl,-1.7,-0.25,-3,-23
COc1ccc(NC(=O)N(C)C[C@H]2Oc3ccc(NC(=O)Nc4c(C)noc4C)cc3C(=O)N([C@H](C)CO)C[C@H]2C)cc1,0.9,0.082,-9,/
CCCC(=O)N(Cc1cc2cccc(C)c2[nH]c1=O)c1ccc(C)cc1,-3.8,/,64,/
CC(C)NC(=O)N(C)C[C@@H]1Oc2c(NS(=O)(=O)c3ccc(F)cc3)cccc2C(=O)N([C@@H](C)CO)C[C@@H]1C,2.0,-0.018,-2,-22
Cc1ccc(Nc2ccc3noc4c3c2C(=O)c2ccccc2-4)cc1,-2.5,0.26,-1,/
O=C(/C=C/c1ccc(O)cc1)OC[C@H]1O[C@@H](Oc2cc(O)c3c(c2)OC(c2ccc(O)cc2)CC3=O)[C@H](O)[C@@H](OC(=O)/C=C/c2ccc(O)cc2)[C@@H]1O (stereo partly specified),-1.3,-0.19,-19,37
COc1ccc(CN(C)C[C@H]2Oc3c(NC(=O)c4ccc(-c5nccs5)cc4)cccc3C(=O)N([C@@H](C)CO)C[C@H]2C)cc1,2.4,-0.26,0,-6
Cc1ccc(NC(=O)COc2ccc3ccccc3c2Br)c([N+](=O)[O-])c1,2.0,/,-42,/
C[C@@H]1CN([C@H](C)CO)C(=O)c2cc(N(C)C)ccc2O[C@H]1CN(C)Cc1ccc(C(=O)O)cc1,0.5,-0.14,-19,-32
C[C@H]1CN([C@@H](C)CO)C(=O)Cc2cc(NC(=O)Nc3ccc(F)cc3)ccc2O[C@@H]1CN(C)Cc1ccc(-c2ccccc2)cc1,2.7,0.24,-11,-68
NC(=O)COc1ccc(NC(=O)c2cccnc2)cc1,0.4,/,-3,/

The listing continues.
smiles,PD-1 reversal,YB-1 expr inh,MITF inh,Hedgehog inh
CCOC(=O)c1cc(NC(=O)CSc2nnc(C)s2)ccc1Cl,-0.2,/,2,/
C[C@@H]1CN([C@@H](C)CO)C(=O)c2cc(NC(=O)Cn3cnnn3)ccc2O[C@H]1CN(C)Cc1ccc(-c2ccccc2)cc1,1.2,0.064,6,/
COc1ccc(S(=O)(=O)N(C)C[C@H]2Oc3ccc(NC(=O)Nc4ccc(C(F)(F)F)cc4)cc3C(=O)N([C@H](C)CO)C[C@@H]2C)cc1,-1.0,0.094,52,32
CC12CS(=O)(=O)CC1SC(=S)N2Cc1ccccc1 (stereo unspecified),-0.6,0.38,25,-14
O=C(c1cn(-c2ccccc2)nc1-c1cc2ccccc2oc1=O)n1nnc2ccccc21,-2.0,/,0,/
COc1cc(OC)nc(NC(=O)CSc2nc3ccccc3o2)n1,1.0,/,-5,/
C[C@@H]1CN([C@@H](C)CO)C(=O)c2cccc(NC(=O)C3CCCCC3)c2O[C@@H]1CN(C)C(=O)Nc1cccc2ccccc12,/,0.4,-10,-91
CCN(CC(=O)Nc1cccc([N+](=O)[O-])c1)S(=O)(=O)c1ccc(C)cc1,-0.1,/,11,/
CCNS(=O)(=O)c1ccc(-c2oc3cc(S(=O)(=O)NCC)ccc3c2Cl)cc1,0.4,0.088,18,32
C[C@H]1CN([C@@H](C)CO)C(=O)c2cccc(NC(=O)c3nc4ccccc4s3)c2O[C@H]1CN(C)CC1CCCCC1,-2.2,-0.15,-11,-6
COc1ccc(-c2nnc(SCC(=O)Nc3cccc(SC)c3)o2)cc1,-2.7,/,-9,/
C[C@H](CO)N1C[C@H](C)[C@H](CN(C)Cc2ccc(C(F)(F)F)cc2)Oc2ccc(NC(=O)CCN3CCOCC3)cc2CC1=O,0.0,-0.022,6,0
